# A1 inh: inhibitors of the anti-apoptotic protein A1, read as caspase activation; MEF A1-2A-BIM cells, Caspase-Glo 3/7 luminescence, 3 h; percent of clofoctol response, vehicle zero; caspase activation, % (no concentration beside the values); 330,000 tested, 0.066% active; AID 2462;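 active means over half of replicate activation scores above 10%, or exactly half above 10 with the replicate mean above 10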;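 further: wells of about 30 µL received 50 nL stock; many hits fall short of the cut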
# B2AR ag: human beta-2 adrenergic receptor agonism by FAP | P07550 | Am2.2-beta2AR cells, FAP receptor internalization, flow cytometry; reference of the scale not given here | response, % (no concentration beside the values) | 340,000 tested, 0.43% active;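 active means response above a set limit, near 3 SD of response in nonfluorescent compounds, cut at about 42% in these data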;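 further: stock transfer was 100 nL into about 11 µL; a reference agonist was the positive control; negative values mostly stem from fluorescent compounds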
# Target sequence (P07550 whole entry, looked up): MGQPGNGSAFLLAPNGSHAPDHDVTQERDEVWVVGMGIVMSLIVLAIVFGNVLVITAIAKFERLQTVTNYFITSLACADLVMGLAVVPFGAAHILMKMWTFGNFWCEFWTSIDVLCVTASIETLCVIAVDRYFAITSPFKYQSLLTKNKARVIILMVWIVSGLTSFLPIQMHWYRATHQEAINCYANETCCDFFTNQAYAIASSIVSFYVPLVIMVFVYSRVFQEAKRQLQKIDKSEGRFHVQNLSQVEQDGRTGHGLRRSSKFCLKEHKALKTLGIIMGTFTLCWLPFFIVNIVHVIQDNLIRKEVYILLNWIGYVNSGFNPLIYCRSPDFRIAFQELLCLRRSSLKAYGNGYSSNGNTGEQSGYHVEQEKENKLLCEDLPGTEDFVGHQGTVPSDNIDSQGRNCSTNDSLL
# LANA-H2A inh: blocks KSHV LANA binding to histone H2A/H2B; cell-free LANA-H2A/H2B peptide, fluorescence polarization; inhibition, % (no concentration beside the values); 320,000 tested, 0.6% active; AID 2629; in the data active means inhibition mostly above about 10%, no sharp cut-off; inactive means mostly below about 6.7%;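 further: stock transfer was 7.5 nL into about 10 µL; 0% = median of vehicle wells and 100% = median of positive control wells; one replicate is shown; the record names a cut of 25% in any replicate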
# Ecoli growth: E. coli growth inhibition | Escherichia coli growth, OD600, 23 h; active compounds read low | OD600 absorbance (concentration not given with the values) | 330,000 tested, 0.21% active | AID 1053175;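 active means OD600 absorbance below the run mean of sample wells minus 3.6 SD, in any replicate, cut at about 0.56 in these data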;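 further: stock transfer was 300 nL into about 60 µL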
# UCH37 inh: inhibitors of human deubiquitinating enzyme UCH37; inhibition, % (test concentration not listed); purified proteasome/UCH37, Ub-AMC cleavage fluorescence; 330,000 tested, 0.33% active; AID 588478;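 active means mean of two replicates above 20%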;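 further: 0% = compound-free wells with enzyme and 100% = wells lacking proteasome; stock transfer was 100 nL into about 20 µL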
# Target sequence (Q9Y5K5 whole entry, looked up): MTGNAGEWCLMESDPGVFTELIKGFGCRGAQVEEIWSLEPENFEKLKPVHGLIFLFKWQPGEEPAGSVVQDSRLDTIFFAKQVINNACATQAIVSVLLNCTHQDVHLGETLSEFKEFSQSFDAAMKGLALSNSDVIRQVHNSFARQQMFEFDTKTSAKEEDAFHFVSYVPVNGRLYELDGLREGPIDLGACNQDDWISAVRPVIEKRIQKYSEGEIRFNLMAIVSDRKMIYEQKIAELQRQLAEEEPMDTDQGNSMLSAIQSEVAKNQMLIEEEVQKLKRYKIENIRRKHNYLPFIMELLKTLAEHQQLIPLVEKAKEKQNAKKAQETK
#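 system = Proteasome-associated human UCH37 deubiquitinase | amount = 0.15 nM proteasome as dispensed | medium = pH 7.4 Tris-HCl (50 mM) with ovalbumin, ATP-MgCl2, DTT | incubation = 30 min preincubation with enzyme, 25 min cleavage at room temperature | detection = AMC fluorescence 355/460 nm | read-out basis = percent inhibition | controls = no-proteasome and no-compound wells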
# Vif A3G: HIV-1 Vif–A3G interaction blockers – biochemical, TR-FRET, GST-Vif 1-94, biotin-A3G peptide, dose response retest, primary screen (AID 1117319); TR-FRET GST-Vif / biotin-A3G peptide binding; higher % means a stronger effect; test concentration not given here; strong numbers were not always called active; inhibition, %; hits with a dose series show IC50 in µM; 260,000 tested, 0.57% active;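 active means above the screen mean plus three standard deviations and confirmed in dose response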;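 further: Vif residues 1-94 fused to GST binding biotinylated APOBEC3G peptide 110-148; 0% = full assay without inhibitor and 100% = GST in place of GST-Vif; retest series ran down from 100 µM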
# HNF4A DNA FP: change in binding of human HNF4 alpha to DNA; P41235; HNF4a-FITC DNA binding, fluorescence polarization, 1 h; activity change, % at 10 µM; 360,000 tested, 0.3% active; in the data active means activity change above about 30%, passing the limit was not always enough;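 further: controls were the assay level and a saturating level of protein; the project sought stronger binding though the title names inhibitors; some compounds called inactive have numbers as strong as hits; positive values seem to mean higher polarization but the record does not say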
# * hit, by the source's call; . = no result given; & = joins results of further samples. An unsorted share of the library; overall some 2.1% were active at least once.
# Preview, three compounds:
SMILES,A1 inh,B2AR ag,LANA-H2A inh,Ecoli growth,UCH37 inh,Vif A3G,HNF4A DNA FP
CN1/C(=C\C(=O)COC(=O)CN2C(=O)C3CC=CCC3C2=O)C(C)(C)c2ccccc21 (stereo not given),-0.9,-9,-0.3,0.66,-14,1%,3.0
O=C(Cc1cccc(C(F)(F)F)c1)NCc1cccnc1,0.1,-1,5.3,0.72,2.5,.,2.7
CC(C(=O)OCC(=O)NC1CCCCC1)N1C(=O)c2ccccc2C1=O (stereo not given),-0.3,1,-0.5,.,.,.,-2.1

# Results, repeating the preview:
SMILES,A1 inh,B2AR ag,LANA-H2A inh,Ecoli growth,UCH37 inh,Vif A3G,HNF4A DNA FP
CN1/C(=C\C(=O)COC(=O)CN2C(=O)C3CC=CCC3C2=O)C(C)(C)c2ccccc21 (stereo not given),-0.9,-9,-0.3,0.66,-14,1%,3.0
O=C(Cc1cccc(C(F)(F)F)c1)NCc1cccnc1,0.1,-1,5.3,0.72,2.5,.,2.7
CC(C(=O)OCC(=O)NC1CCCCC1)N1C(=O)c2ccccc2C1=O (stereo not given),-0.3,1,-0.5,.,.,.,-2.1
CCOC(=O)N1C(=O)C2(CCCCC2)N(c2ccccc2Cl)C1=S,-1.7,5,-1.2,0.73,3.1,5%,3.0
COc1ccc(C(=O)NCc2ccccn2)cc1[N+](=O)[O-],-0.3,0,.,0.67,1.4,-4%,-0.5
Oc1ccccc1-c1nc(NCC2CCCO2)c2ccccc2n1 (stereo not given),0.4,3,1.8,0.73,3.1,-8%,1.5
C=CCn1cc(C(=O)NCCCOCC)c(=O)c2cc(S(=O)(=O)N(CC)CC)ccc21,-0.6,-5,-0.5,0.69,6.8,1%,-1.6
C[C@@]12C(=O)Nc3cc(F)ccc3C(=O)N1[C@H]1c3cc(Br)ccc3OC[C@@H]1[C@@H]2c1ccccc1,0.0,14,-8.2,.,6.6,.,3.5
Cn1c(SCc2nnc3n2CCCCC3)nc2ccccc21,0.9,6,-4.2,0.72,2.6,8%,0.4
O=C(CSc1nncs1)Nc1ccc2[nH]c(=O)[nH]c2c1,-0.2,2,-6.6,0.68,1.8,-2%,1.2
Nc1n[nH]c(CCCO)n1,0.0,-1,2.1,0.67,1.5,0%,-3.0
Cc1cc2[nH]c(=O)c(=O)[nH]c2cc1S(=O)(=O)NCc1ccccc1,-0.8,-2,-1.8,0.71,-97,-7%,0.7
CCN(Cc1ccc2c(c1)OCCO2)C(=O)CN1C(=O)NC2(CCCCC2)C1=O,-1.8,-8,-4.0,0.71,-0.1,-2%,-2.0
CCOC(=O)C1(O)CC(C)=NN1C(=O)c1cccc(Cl)c1 (stereo not given),1.2,1,-1.1,0.69,1.6,0%,-1.8
CCCN(CCC)C(=O)C1CC(=O)OC12CCOC(C)(C)C2 (stereo not given),-0.2,3,14,.,-1.6,-8%,-1.9
COc1ccc(C2/C=C\CN(S(=O)(=O)c3cccc4cccnc34)CC(=O)N2Cc2ccc(F)cc2)cc1 (stereo not given),-0.3,3,-5.0,.,1.8,.,-6.1
CCn1c(SCC(=O)Nc2ccc3c(c2)OCO3)nc2c(c1=O)SC(C)C2 (stereo not given),0.3,-3,2.3,0.71,6.9,3%,-5.4
O=C(Cc1nc(-c2cnccn2)no1)NNC(=O)Nc1ccccc1,0.6,5,5.2,0.68,1.2,7%,-1.4
CCn1c(SCc2ccccc2)nc2c(c1=O)SCC2,0.1,12,-2.1,0.68,2.7,4%,2.4
CN1CCC[C@H]1CCNC(=O)c1c(-c2ccsc2)sc2ccccc12,-0.3,3,-0.1,.,2.1,.,1.6
COc1ccccc1C(=O)NC1CC(C)(C)NC(C)(C)C1,0.6,-1,1.0,0.68,4.6,.,-1.6
CS(=O)(=O)c1ccc(NCCc2ccc(S(N)(=O)=O)cc2)c([N+](=O)[O-])c1,0.1,-5,-1.1,0.67,4.4,4%,-0.4
NNC(=O)CCN1CCN(C(c2ccccc2)c2ccccc2)CC1,0.2,5,-0.5,0.66,0.8,74%,3.4
COc1cccc(/C=N/n2c(N)nc3ccccc32)c1OC,-3.8,-4,0.4,.,.,16%,3.0
CCOC(=O)c1ccc(N2C(=O)[C@@H](c3ccccc3)[C@H]2c2ccccc2)cc1,0.9,3,1.0,.,2.1,.,-1.6
Cc1cc(-n2c(C)cc(C(=O)CSc3ncnc4ccccc34)c2C)no1,-0.3,11,3.0,0.74,1.1,-3%,1.3
COc1cc(NC(=O)N[C@H](C(=O)O)C(C)C)cc(OC)c1,-0.8,6,1.9,0.69,3.2,0%,5.0
CCOc1ccc(CC(=NCCO)C2=C(O)CC(C)(C)CC2=O)cc1OCC,-0.2,-7,-0.1,0.7,5.6,22%,-3.6
O=[N+]([O-])c1ccc(Nc2ccc3ccccc3c2)nc1,0.6,2,0.8,0.72,3.4,1%,-0.1
CN1C(=O)/C(=C/c2ccc(O)c([N+](=O)[O-])c2)N(C)C1=S,-6.0,-1,-2.7,.,.,8%,-0.2

# 5 entries from above, with bars between the fields.
Structure | A1 inh | B2AR ag | LANA-H2A inh | Ecoli growth | UCH37 inh | Vif A3G | HNF4A DNA FP
CN1CCC[C@H]1CCNC(=O)c1c(-c2ccsc2)sc2ccccc12 | -0.3 | 3 | -0.1 | . | 2.1 | . | 1.6
COc1ccccc1C(=O)NC1CC(C)(C)NC(C)(C)C1 | 0.6 | -1 | 1.0 | 0.68 | 4.6 | . | -1.6
CS(=O)(=O)c1ccc(NCCc2ccc(S(N)(=O)=O)cc2)c([N+](=O)[O-])c1 | 0.1 | -5 | -1.1 | 0.67 | 4.4 | 4% | -0.4
NNC(=O)CCN1CCN(C(c2ccccc2)c2ccccc2)CC1 | 0.2 | 5 | -0.5 | 0.66 | 0.8 | 74% | 3.4
COc1cccc(/C=N/n2c(N)nc3ccccc32)c1OC | -3.8 | -4 | 0.4 | . | . | 16% | 3.0

# Continued.
SMILES,A1 inh,B2AR ag,LANA-H2A inh,Ecoli growth,UCH37 inh,Vif A3G,HNF4A DNA FP
N#Cc1ccc(NC(=O)c2sc3cc(C(F)(F)F)cnc3c2-c2cccs2)cc1,0.4,-4,2.3,0.79,-36,-134%,-3.3
N#Cc1c(NC(=O)c2ccccc2)sc2c1CCCCC2,-5.7,-1,-1.4,0.68,3.2,.,-1.4
CCOC(=O)Cc1cc(=O)n2[nH]c(C)c(-c3ccc(Cl)cc3)c2n1,0.4,0,3.7,0.69,-34,12%,4.4
CCC1CCCCN1C(=O)CSc1nnc(CNC(=O)COc2ccc(Cl)cc2)o1 (stereo not given),-0.5,-6,-2.8,0.74,-2.2,8%,2.3
Cc1ccc2nc(CSc3nnc(-c4ccncc4)n3C)cc(=O)n2c1,-0.8,-1,0.6,0.7,-6.2,19%,-4.9
COc1ccc(NC(=O)CCSc2ccc(C)cc2)cc1,0.0,11,4.4,0.69,4.4,.,3.4
CC1=C(C(=O)Nc2ccccc2C)C2(CCCC2)C(C(N)=O)C(=O)N1 (stereo not given),1.6,5,-0.5,0.68,1.0,17%,-0.3
Brc1c(CSc2nc3ccccc3s2)nc2ncccn12,-5.4,-2,5.5,0.62,-81,-11%,3.1
C=CCn1c(=NC(=O)CN2C(=O)CCC2=O)sc2cccc(OC)c21,-0.7,-3,0.3,0.75,-2.6,-3%,5.2
CN1CCN(C(=O)c2cc(S(=O)(=O)Nc3ccccc3F)c(Cl)cc2Cl)CC1,-1.0,4,5.2,0.64,3.3,1%,-3.9
Cn1c(=O)c2c(nc(SCCN3CCOCC3)n2Cc2cccc3ccccc23)n(C)c1=O,0.7,-11,0.3,0.74,5.3,2%,0.1
COc1ccc(C(=O)NC2CC3CCCC(C2)N3Cc2ccccc2)c(OC)c1 (stereo not given),-0.2,-9,-1.4,0.71,-8.2,.,-0.6
COc1ccc(NS(=O)(=O)c2cccc(C(=O)N3CCN(Cc4ccc5c(c4)OCO5)CC3)c2)cc1,-1.2,-5,-1.2,0.67,4.6,1%,-0.4
O=C(CCCn1c(=S)[nH]c2cc3c(cc2c1=O)OCO3)N1CCc2ccccc2C1,0.3,-6,0.5,0.74,3.7,-32%,-0.8
COc1ccc(OCC(=O)Nc2ccccc2N2CCCCC2)cc1,-0.2,-11,-0.2,0.73,3.5,2%,-1.7
Cc1ccsc1C(=O)OCC(=O)NCCC1=CCCCC1,-0.6,-2,-0.5,0.74,6.6,14%,-1.4
Nc1nc(-c2nonc2N)no1,-0.7,-2,-3.7,0.69,-0.3,19%,-1.7
CC(C)(O)C#Cc1ccc(C(=O)N2CCN(c3ccc(Cl)cc3)CC2)cc1,0.6,-2,-3.5,0.66,2.3,-3%,2.2
O=C(NCC(c1ccco1)N1CCCCC1)c1cnc(Cl)c(Cl)c1 (stereo not given),0.8,4,5.8,0.67,1.4,.,1.6
COC(=O)c1c([N+](=O)[O-])c(OC)c(OC)c(OC)c1[N+](=O)[O-],-0.6,9,-1.3,0.64,-0.2,5%,0.1
CCOCCCNC(=O)/C(C#N)=C/c1ccc(Cl)c([N+](=O)[O-])c1,0.1,33,0.1,0.7,5.3,.,5.8
CC(=O)c1ccc(N2CCN(S(=O)(=O)c3ccc(-c4cc(C)no4)s3)CC2)cc1,-0.2,-2,5.5,0.68,3.1,.,3.3
CCc1ccc(NC(=O)Cn2c(=O)n(CCCC(=O)NCc3ccco3)c(=O)c3ccccc32)cc1,0.0,1,-2.4,0.79,0.4,5%&-1%,-1.2
CCOC(=O)/C=C/C(=O)Nc1ccc(S(=O)(=O)N2CCc3ccccc32)cc1,-0.3,3,-2.5,0.6,2.8,.,0.3
COc1ccc(NC(=O)CSc2ncc(-c3ccc(F)cc3)n2Cc2ccco2)cc1,-0.4,-7,-0.6,0.71,1.8,-7%,1.4
CCN(CC)CCNC(=O)c1ccccn1,1.0,1,-0.3,0.72,1.5,3%,-1.3
COc1ccc(S(=O)(=O)N2CCOC2CNC(=O)C(=O)NCc2ccc(F)cc2)cc1 (stereo not given),0.6,-5,-0.7,0.69,-0.3,.,-5.2
COCCC(=O)N1CCC(Oc2ccc(C(=O)N(C)C3CCCCC3)cc2)CC1,0.2,-3,6.5,0.65,-2.3,-8%,-0.8
CCN(c1ccccc1)S(=O)(=O)c1ccc(C(=O)N2CCN(c3ccccc3)CC2)cc1,-1.2,5,1.7,0.7,1.7,-4%,6.8
COc1ccc(OC)c(CN2CCN(Cc3cc(OC)c(OC)c(OC)c3)CC2)c1,0.0,-1,3.2,0.7,3.0,.,2.4
CNC(=S)N/N=C(\C)c1ccc(N2CCOCC2)cc1,.,3,.,.,.,31%,2.2
CC1(C)CC(=O)C=C(/C=C/c2ccccc2)C1,-0.7,1,-0.5,.,4.5,.,1.1
COc1ccc(C2CC(c3ccc4ccccc4c3)=NN2C(=O)CSc2ncccn2)cc1 (stereo not given),0.0,-4,-1.3,0.74,-47,.,-1.9
Cc1noc(NS(=O)(=O)c2ccc(NC(=O)CC(C)C)cc2)c1C,-1.3,3,-1.8,0.71,2.4,.,2.1
Cc1cc(/C=N/n2cnnc2)c(O)c([N+](=O)[O-])c1,0.3,-3,-2.3,.,.,2%,-5.0
CC(=O)N(CCCN(C)C)Cc1ccccn1,-0.2,2,3.2,0.7,1.6,1%,-1.1
CN(C)CCCNC(=S)/N=c1\sccn1Cc1ccccc1Cl,-0.1,0,0.1,.,.,0%,-0.9
COC(=O)c1ccc(Cn2ccc(=O)[nH]c2=O)cc1,.,8,.,0.69,1.0,1%,0.4
COc1cccc(-c2nn(-c3ccc(C)cc3)cc2C(=O)NCC2CCCO2)c1 (stereo not given),0.6,9,0.1,0.64,-0.2,1%,-1.1
O=C1N[C@H](Cc2c[nH]c3ccccc23)COC(=O)[C@H](Cc2ccc(F)cc2)C/C=C\C[C@H]1CC(=O)N(CCO)Cc1ccccc1,1.3,12,-6.2,.,6.0,.,-4.2
O=C(NCc1ccco1)c1cccc(NC(=O)c2ccccc2)c1,0.2,-4,3.8,0.67,-0.9,-1%,3.5
